RecA splice inh = Mtb RecA intein splicing inhibitors, primary screen, biochemical, fluorescence, HTS; cell-free RecA intein splicing; inhibition, %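 (about 9 µM by stock and volumes)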; 0.75% of 290,000 active; in the data active means inhibition above about 30%; inconclusive means no clear call, values can overlap the other calls;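 further: 0% = vehicle wells and 100% = reference inhibitor control wells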
Target sequence (P9WHJ3 whole entry, looked up, canonical isoform): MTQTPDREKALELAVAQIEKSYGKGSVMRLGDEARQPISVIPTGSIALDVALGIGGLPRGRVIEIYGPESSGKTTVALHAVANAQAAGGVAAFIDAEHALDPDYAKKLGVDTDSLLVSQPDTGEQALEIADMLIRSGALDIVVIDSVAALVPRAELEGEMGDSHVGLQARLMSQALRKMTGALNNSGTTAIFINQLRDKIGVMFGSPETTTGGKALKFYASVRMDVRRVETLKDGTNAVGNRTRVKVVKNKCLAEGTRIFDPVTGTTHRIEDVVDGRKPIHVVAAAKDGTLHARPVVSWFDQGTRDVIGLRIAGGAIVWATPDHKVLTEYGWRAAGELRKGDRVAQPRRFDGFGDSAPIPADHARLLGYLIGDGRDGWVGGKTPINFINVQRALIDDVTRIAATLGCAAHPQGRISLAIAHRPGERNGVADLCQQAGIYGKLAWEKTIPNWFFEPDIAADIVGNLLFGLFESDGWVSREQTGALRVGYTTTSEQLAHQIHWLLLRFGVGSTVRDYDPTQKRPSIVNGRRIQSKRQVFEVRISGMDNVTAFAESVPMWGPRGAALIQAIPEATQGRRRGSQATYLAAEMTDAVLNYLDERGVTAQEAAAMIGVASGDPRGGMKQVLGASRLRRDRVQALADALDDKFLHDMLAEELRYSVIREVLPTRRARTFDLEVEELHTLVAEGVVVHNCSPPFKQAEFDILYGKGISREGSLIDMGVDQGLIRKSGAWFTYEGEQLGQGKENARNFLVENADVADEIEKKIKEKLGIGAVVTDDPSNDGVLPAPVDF
Arbovirus inh = antivirals against arbovirus infection, primary screen, cell-based, full library, 10K replicate subset | arbovirus infection cell-based antiviral screen | 0.37% of 200,000 active | inhibition, % at 10 µM;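 active means inhibition from about 30%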;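 further: bluetongue infection of BSR cells; cell survival read as ATP light after 72 h; 0% = infected wells without compound and 100% = uninfected wells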
Mtb betalactam = beta-lactam sensitization of Mtb H37Rv, H37Rv; M. tuberculosis H37Rv growth with meropenem, percent inhibition; hits of this screen are not shown here; inhibition, % at 25 µM; 0.27% of 330,000 active;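 active means about 74% or more and at least 40 points above the plate without the antibiotic, then above 30% in a dose series; inconclusive means first-round hits that could not be retested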;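 further: growth measured after seven days incubation then overnight dye step; 0% = bacteria only wells and 100% = bacteria with antibiotic; twin plates without the antibiotic show which effects depend on it; some results filed as inactive read as strong as hits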
Mtb H37Rv = M. tuberculosis H37Rv growth inhibitors, H37Rv strain (AID 1626); 0.95% of 220,000 active; M. tuberculosis H37Rv growth inhibition; higher % means a stronger effect; one-dose inhibition, % at 10 µM; IC50 in µM for titrated hits;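 active means confirmed in a dose series; inconclusive means inhibition above 80% but not taken into the dose series; inactive means below 80% or under 30% at every dose of the series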;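 further: bacteria incubated seven days before Alamar blue readout; 0% = bacteria only wells and 100% = bacteria with antibiotic wells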
YopH PTP inh = YopH tyrosine phosphatase inhibitors, primary screen, biochemical, fluorescence Ex485/Em525; YopH tyrosine phosphatase [Yersinia enterocolitica]; AID 898, 2007; 0.16% of 140,000 active; inhibition, %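 (about 10 µM by stock and volumes)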;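 active means inhibition of 50% or more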;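 further: controls were vehicle for no effect and minimum signal wells for full effect; inactives centre near -20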
Arbovirus inh repeat = recorded beside Arbovirus inh, whose call it bears; inhibition, %; measured here: 10K subset replicate screen; many hits read low in the repeat;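 first of two repeat runs on a subset; 0% = infected and 100% = uninfected wells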
Numbers without * were called inactive; ? = inconclusive; · = not tested or not shown; & = joins results of further samples. An excerpt (hit frequency here may not be typical).

SMILES	RecA splice inh	Arbovirus inh	Mtb betalactam	Mtb H37Rv	YopH PTP inh	others
COc1cc(C2C3=C(CC(c4ccco4)CC3=O)Nc3ccccc3N2C(C)=O)cc(OC)c1OC (stereo unspecified)	3.0	-4.0	-9.9	-0.4%	-18.1	Arbovirus inh repeat=2.6
O=C1[C@@H]2CSCN2C(=O)CN1Cc1ccc(F)cc1	-0.9	·	1.1	-2.0%	·
COc1ccc(NC(=O)CSc2nc3c(c(=O)n(C)c(=O)n3C)n2C)c(OC)c1	-1.7	·	-5.4	·	·
COc1cc(/C=N\Nc2nc3ccccc3[nH]2)cc(OC)c1OC	-5.0	0.8	-6.5	1.8%	-20.7
CCOC(=O)C1C2C=CC(CC2)N1c1ccccc1 (stereo unspecified)	-4.3	·	-6.3	-6.0%	·
O=C(CSc1nc(-c2ccccc2)cc(C(F)(F)F)n1)c1cccc([N+](=O)[O-])c1	0.6	-2.6	7.2	8.5%	8.6
N#CCc1nc2c3c4c(sc3ncn2n1)CCCC4	-1.1	-3.9	·	·	-11.4
CC1(C)CC2CC(C)(CN2Cc2c(O)ccc3ccccc23)C1 (stereo unspecified)	-4.0	13.9	0.8	-2.0%	·
Cc1cc(-c2ccccc2)nc2cc(C(=O)NCCCn3ccnc3)nn12	·	-2.8	-5.5	0.3%	-27.5
Cc1ccc(S(=O)(=O)N2CCCCC2CCNC(=O)C(=O)NCc2cccnc2)cc1 (stereo unspecified)	-0.7	·	-7.4	·	·
COc1ccc(CN(C)C(=O)COC(=O)c2ccc3c(c2)OCO3)cc1OC	0.5	10.2	5.6	-2.6%	-14.5
CCCCCC1(C)NC(=S)N(c2ccccc2)N1 (stereo unspecified)	-1.8	-20.1	60.1	23.4%	·
Fc1cccc(CNc2ncnc3cc(Cl)ccc23)c1F	4.4	·	12.0	·	·
CNC(=O)NC(=S)NC(=O)c1ccc(OC)cc1	0.6	10.5	2.2	-2.2%	-41.6
O=C(CNC(=O)c1cccs1)OCC(=O)c1ccc([N+](=O)[O-])cc1	-3.9	-5.9	0.1	-11.2%	·
CCOC(=O)C1CCN(c2cc(C)nc3cc(-c4cccc(F)c4)nn23)CC1	·	0.9	?	4.0%	-6.8
COc1ccc(C(C[N+](=O)[O-])c2c(-c3ccccc3)cc3ccccn23)cc1OC (stereo unspecified)	6.3	-10.1	-1.0	·	-26.4
CC1CCC(NC(=O)CCn2ccc3cc(S(=O)(=O)N4CCCC4)ccc32)CC1 (stereo unspecified)	0.7	·	-3.9	·	·
CC(C)(C)c1csc(NC2=NS(=O)(=O)c3ccccc32)n1	-1.1	12.7	5.3	13.0%	-36.5
CCN1CCN(CCCNC(=O)C2CCN(c3nnc(-n4c(C)ccc4C)s3)CC2)CC1	-1.4	·	?	·	·
Cc1nnn(-c2nonc2N)c1C(=O)NNC(=O)c1ccc(Cl)c(Cl)c1	-3.0	0.0	73.0	?	·
O=C(CN1C(=O)NC(Cc2ccccc2)C1=O)Nc1ccccc1OC(F)F (stereo unspecified)	4.1	·	-2.1	·	·
Cc1cccc(N2CCN(C(=O)C3CCN(c4ncnc5c4nc4n5CCCCC4)CC3)CC2C)c1 (stereo unspecified)	2.3	·	99.8	·	·
Cc1ccc(S(=O)(=O)Cc2ccc(C(=O)N3CCN(c4cc(C)ccc4C)CC3)o2)cc1	-4.1	-10.9	0.1	-9.4%	-17.4
COc1cc(C(=O)NCCC(C)C)c([N+](=O)[O-])cc1OC	1.3	12.6	3.8	-3.9%	-35.8
CCN1CCN(C(=S)NC(=O)c2cccs2)CC1	-7.8	·	4.7	·	·
O=C1CC[C@H](O)CCN1[C@H](CSc1ccccc1)Cc1ccccc1	0.4	·	-8.4	·	·
Oc1ccc(/C=N/N2CCOCC2)c(O)c1O	-6.3	12.3	-4.0	-7.0%	·
O=C(CCC(=O)Nc1ccc(Oc2ccccc2)cc1)NCCO	-0.4	-5.9	89.8	>100µM*	-42.7
COc1ccc(-c2c(C)n([O-])c3c([n+]2=O)CCCC3)cc1	0.3	-3.4	-8.8	-4.7%	-10.2

Copied from the results shown (17 entries):
SMILES	RecA splice inh	Arbovirus inh	Mtb betalactam	Mtb H37Rv	YopH PTP inh	others
COc1ccc(CN(C)C(=O)COC(=O)c2ccc3c(c2)OCO3)cc1OC	0.5	10.2	5.6	-2.6%	-14.5
CCCCCC1(C)NC(=S)N(c2ccccc2)N1 (stereo unspecified)	-1.8	-20.1	60.1	23.4%	·
Fc1cccc(CNc2ncnc3cc(Cl)ccc23)c1F	4.4	·	12.0	·	·
CNC(=O)NC(=S)NC(=O)c1ccc(OC)cc1	0.6	10.5	2.2	-2.2%	-41.6
O=C(CNC(=O)c1cccs1)OCC(=O)c1ccc([N+](=O)[O-])cc1	-3.9	-5.9	0.1	-11.2%	·
CCOC(=O)C1CCN(c2cc(C)nc3cc(-c4cccc(F)c4)nn23)CC1	·	0.9	?	4.0%	-6.8
COc1ccc(C(C[N+](=O)[O-])c2c(-c3ccccc3)cc3ccccn23)cc1OC (stereo unspecified)	6.3	-10.1	-1.0	·	-26.4
CC1CCC(NC(=O)CCn2ccc3cc(S(=O)(=O)N4CCCC4)ccc32)CC1 (stereo unspecified)	0.7	·	-3.9	·	·
CC(C)(C)c1csc(NC2=NS(=O)(=O)c3ccccc32)n1	-1.1	12.7	5.3	13.0%	-36.5
CCN1CCN(CCCNC(=O)C2CCN(c3nnc(-n4c(C)ccc4C)s3)CC2)CC1	-1.4	·	?	·	·
Cc1nnn(-c2nonc2N)c1C(=O)NNC(=O)c1ccc(Cl)c(Cl)c1	-3.0	0.0	73.0	?	·
O=C(CN1C(=O)NC(Cc2ccccc2)C1=O)Nc1ccccc1OC(F)F (stereo unspecified)	4.1	·	-2.1	·	·
Cc1cccc(N2CCN(C(=O)C3CCN(c4ncnc5c4nc4n5CCCCC4)CC3)CC2C)c1 (stereo unspecified)	2.3	·	99.8	·	·
Cc1ccc(S(=O)(=O)Cc2ccc(C(=O)N3CCN(c4cc(C)ccc4C)CC3)o2)cc1	-4.1	-10.9	0.1	-9.4%	-17.4
COc1cc(C(=O)NCCC(C)C)c([N+](=O)[O-])cc1OC	1.3	12.6	3.8	-3.9%	-35.8
CCN1CCN(C(=S)NC(=O)c2cccs2)CC1	-7.8	·	4.7	·	·
O=C1CC[C@H](O)CCN1[C@H](CSc1ccccc1)Cc1ccccc1	0.4	·	-8.4	·	·

Next part.
SMILES	RecA splice inh	Arbovirus inh	Mtb betalactam	Mtb H37Rv	YopH PTP inh	others
O=C(CSc1nc2ccsc2c(=O)n1CC1CCC(C(=O)O)CC1)NCCc1ccc(Cl)cc1 (stereo unspecified)	1.0	·	4.2	·	·
COc1cccc(NC(=O)NNC(=O)CN2C(=O)COc3ccccc32)c1	2.4	·	-8.3	·	·
CCOC(=O)C(=NCC1CCCO1)NNc1ccccc1Cl (stereo unspecified)	-0.9	·	75.2	60.7%	·
CC(C)(C)c1cnnn1-c1ccc(C(=O)CCl)cc1	74.7*	-6.0	0.7	-9.6%	-24.0
CC(=O)Nc1ccc(S(=O)(=O)NCCc2ccc(S(N)(=O)=O)cc2)cc1	-0.7	2.9	41.7	5.0%	-7.1
CCNC(=O)CSc1nnc(-c2cc(-c3ccc(Cl)cc3)nc3ccccc23)o1	1.4	-10.6	51.2	16.0%	-34.8
CCOc1cc(Cl)c(S(=O)(=O)NCCCN2CCOCC2)cc1Cl	-5.1	·	-1.2	·	·
C/C(=N\NC(=O)CC1(C)OCCO1)c1cccs1	-0.5	5.6	3.4	-6.3%	-17.9
O=C1/C(=C/c2cccnc2)SC(=S)N1NS(=O)(=O)c1ccccc1	5.6	·	4.3	·	·
Cc1cc(C)c(NC(=O)COc2nc3ccccc3nc2C)c(C)c1	-4.5	-5.3	-3.1	3.9%	-32.0
S=c1[nH]nc(Cc2ccccc2)n1-c1ccc(Cl)cc1	2.1	-4.0	3.5	-10.8%	·
C1CC(CN2CCOCC2)CN(c2nc3nonc3nc2N2CCSCC2)C1 (stereo unspecified)	-3.9	6.7	-12.0	·	·
COc1ccccc1/C=C/C=N/n1c(-c2ccccn2)n[nH]c1=S	0.2	·	-7.5	-10.8%	·
COc1ccccc1-n1cnnc1SCC(=O)Nc1cccnc1Cl	-0.2	-0.8	-3.3	0.2%	·
O=C(N/N=C(/CC(=O)c1cccs1)C(F)(F)F)c1ccc(O)cc1	7.4	4.4	64.1	3.5%	-11.8
Cc1nn(-c2ccccc2)c(Cl)c1/C=N/N1CCN(c2ccccn2)CC1	·	-5.4	0.2	3.7%	·
Cc1cc(=O)[nH]c(SCC(=O)NCC2CCCO2)n1 (stereo unspecified)	1.6	·	-2.5	-2.2%	·
O=C(NC(=S)Nc1ccc2oc(-c3ccncc3)nc2c1)c1ccccc1F	8.3	-2.4	-2.6	1.7%	·
N#CC1=C(N)Oc2n[nH]c(-c3ccccc3)c2C12C(=O)Nc1ccccc12 (stereo unspecified)	29.5	-1.7	5.3	0.7%	-21.2
Cc1nn2c3c(cnc2c1-c1ccc(Cl)cc1)C(=O)CC(c1ccco1)C3 (stereo unspecified)	1.5	·	-6.6	-3.1%	·
Cc1n[nH]c(C)c1Sc1ccccc1N=Cc1cc([N+](=O)[O-])ccc1O	-11.0	-3.6	10.4	2.6%	-16.3
Cc1ccc(C(=O)NC(=S)Nc2ccc(N3CCOCC3)cc2)cc1C	-6.0	-4.3	0.1	5.6%	·
Cc1occc1C(=O)Nc1nnc(-c2ccncc2)s1	1.3	-3.3	15.0	7.2%	-40.4	Arbovirus inh repeat=3.6
CC(C)(C)OC(=O)NCCCCC1=CC2=CC(=O)C(C)(O)C(=O)C2=CO1 (stereo unspecified)	4.7	·	-0.9	-10.9%	·
CCOc1ccc2[nH]cc(C(=O)N3CCN(C4CCCCC4)CC3)c(=O)c2c1	-0.2	·	-1.4	-5.2%	-17.2
Clc1cncc(Cl)c1N/N=C/c1ccccc1	·	·	-2.6	-3.0%	·
C/C(=N\NC(=O)c1cc(C(C)C)[nH]n1)c1ccncc1	-3.6	·	0.5	·	·
Cc1cc(C)cc(N2C(=O)CSC2c2cccs2)c1 (stereo unspecified)	-2.3	0.9	-2.4	-1.3%	-13.7
Cc1ccc(-c2cc(C(=O)Nc3cnn(C45CC6CC(CC(C6)C4)C5)c3)no2)cc1	0.1	11.8	0.7	5.8%	-21.4
O=C(O)CCCNS(=O)(=O)c1ccc2ccccc2c1	-0.4	9.1	-1.5	-6.0%	-79.3
COCCN(C(=O)CSc1ncc(C(F)(F)F)cc1Cl)c1c(N)n(Cc2ccccc2)c(=O)[nH]c1=O	2.8	0.0	0.3	3.6%	·
O=C(NCC(=O)N1CCN(C(c2ccccc2)c2ccccc2)CC1)c1ccc(Br)o1	9.0	·	5.0	·	·
CC1(C)NC(=O)N(CC(=O)OCC(=O)Nc2cccc(S(N)(=O)=O)c2)C1=O	-0.9	15.1	-6.8	-0.8%	·
O=C(COc1ccc(C2SCCS2)cc1)NNC(=O)C(Cl)Cl	1.9	·	-9.3	-6.6%	·
CC1CCCC(C)N1C(=O)c1cc(-c2ccc3c(c2)OCO3)on1 (stereo unspecified)	1.2	·	54.8	·	·
CCN(CC(=O)NCc1cccs1)C(=O)c1cccc(S(=O)(=O)Nc2ccc(OC)cc2)c1	-1.3	·	-1.9	·	·
CCOc1ccc(CCNC(=O)COC(=O)CCc2cc(OC)c(OC)c(OC)c2)cc1OCC	-1.2	·	-9.8	·	·
Cc1cccc(Nc2nc(N)nc(CN3CCN(c4ccc(F)cc4)CC3)n2)c1	8.4	3.9	92.1	10.7%	-18.3
O=C(NCc1ccccc1)C(=O)Nc1nccs1	-3.2	-0.5	-18.3	6.1%	·
CC(C)N(CCNS(=O)(=O)c1ccc(Cl)cc1)C(C)C	0.2	-0.4	5.7	-4.1%	-20.7
O=c1cc(O)nc(SCc2ccccc2)n1-c1ccccc1	3.5&6.9	3.5&10.0	5.6&-11.3	-4.3%&-1.7%	-27.5&-38.6
CN1CCN(c2ccc(NC(=O)CSc3nnnn3-c3ccccc3Cl)cc2)CC1	1.5	·	40.5	·	·
CC1(C)C=Cc2c(ccc(-c3coc4cc(O)ccc4c3=O)c2O)O1	-0.7	·	0.1	19.3%	·
O=C(O)c1ccc(/C=C/c2nc3ccccc3c(=O)n2-c2ccc(Br)cc2)cc1	2.8	·	4.1	·	·
COc1ccccc1NC(=O)c1ccc2nc(C)sc2c1	1.6	·	4.9	·	·
COc1ccc(OCCSc2nnc(C)n2-c2ccccc2)cc1	-1.2	-17.9	-4.7	0.5%	-1.0
